# PINK1 modulator = modulators of PINK1 expression; PINK1 immunofluorescence, high-content cytometry, 24 h; Potency, µM (doses to about 76.6 µM), for the others: at the highest dose activation (PINK1 increase), hits mostly activators; 0.2% of 410,000 active; active = well fitted activation curve with a large enough effect; inconclusive = small, poorly fitted or top-dose-only effect; inactive = flat fitted curve, though single readings scatter; cell line not stated here;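 note: potency is the fitted concentration of half-maximal effect; % of control where 0% means no effect; nearly all actives have a fitted effect of over 65% in size; a mitochondrial uncoupler was the plate control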
#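 Decision-based qHTS: stable cells, 24 h exposure to five compound concentrations, CCCP as control. Fixed cells stained for PINK1 plus nuclear, mitochondrial and cell markers, cytometer read.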
# Menin-MLL FL inh = menin-MLL binding inhibition, fluorescein peptide; Fluorescence polarization, fluorescein-MLL peptide displacement from menin; FP activity change, % at 61.4 µM; 290,000 tested, under 10 active; AID 1766; inconclusive = falling polarisation curve, or a change in total fluorescence; inactive = total fluorescence flat and polarisation flat or rising; no compound was filed as active; the % refers to the polarisation; negative = inhibition;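 note: % of control where 0% means no effect; inhibitors lower the polarisation; unlabelled MLL peptide was the positive control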
# Sfp PPTase inh = inhibitors of Bacillus subtilis Sfp phosphopantetheinyl transferase; 3.5% of 310,000 active; Biochemical Sfp PPTase activity, qHTS; Q9F4F7; Potency, µM, for inactives: max response, negative = inhibition, most hits filed as inhibitors; active = well fitted inhibition curve with a large enough effect; inconclusive = small, poorly fitted or top-dose-only effect, or another doubt; inactive = no such curve, though single readings can be large or run the other way;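 note: the enzyme is Sfp with the accession as filed and its product quenches rhodamine fluorescence; potency is the fitted concentration of half-maximal effect; 0% = enzyme reaction without inhibitor and -100% = no enzyme wells; top concentration of the series not given in the record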
#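 Sfp 15 nM + cpd, 15 min RT; start w/ rhodamine-CoA 5 uM, BHQ-2-YbbR 12.5 uM (final); 50 mM Hepes pH 7.6, 10 mM MgCl2, 0.01% NP-40, 0.01% BSA; read 525/598 nm at 0 and 30 min.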
# ClpP mod = qHTS Assay for Activators of ClpP | ATP-dependent Clp protease proteolytic subunit (Bacillus subtilis (strain 168)), P80244 | AID 651965, 2013 | 1.9% of 340,000 active | purified B. subtilis ClpP, FRET peptide cleavage, 20 min | Potency, µM (doses to about 57.5 µM), for inactives: at the top dose activity change, negative = active; active = well fitted falling curve with a large enough effect; inconclusive = small, poorly fitted or top-dose-only effect; inactive = no such curve, though single readings can be large or run the other way; note: potency is the fitted concentration of half-maximal effect; the source files actives as falling curves though it sought activators and does not explain the sign; nearly all actives have a fitted effect of over 65% in size; many hits overshoot -100%
# Target sequence (P80244 whole entry, looked up): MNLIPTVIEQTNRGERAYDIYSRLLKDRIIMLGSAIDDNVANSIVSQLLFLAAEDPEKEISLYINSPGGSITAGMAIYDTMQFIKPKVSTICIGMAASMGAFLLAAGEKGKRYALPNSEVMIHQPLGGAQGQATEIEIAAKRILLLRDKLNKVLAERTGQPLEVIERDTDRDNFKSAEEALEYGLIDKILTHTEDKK
#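 Buffer: 100 mM Tris/HCl pH8, 100 mM KCl, 0.05% low protease BSA, 2.5% glycerol, 0.01% Tween-20. ClpP 10 microg/mL final; 20 min RT; delta FRET normalized to ADEP and DMSO controls.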
# gsp agonist = activates gsp, the McCune-Albright syndrome mutation | gsp mutant cells, cAMP HTRF, 30 min; control for the full effect not named in the record | Potency, µM (doses to about 76.9 µM), for inactives: at the highest dose activation (cAMP increase), usual class: activators | 0.13% of 340,000 active | AID 624287; active = well fitted activation curve with a large enough effect; inconclusive = small, poorly fitted or top-dose-only effect, or another doubt; inactive = no such curve, though single readings can be large or run the other way; cell line not stated here;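 note: phosphodiesterase inhibitor Ro 20-1724 added with compounds to block cAMP breakdown; potency is the fitted concentration of half-maximal effect; nearly all actives have a fitted effect of over 60% in size; about a fifth of the inactives were tested at one dose only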
#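 Cells in DMEM/10% FBS with G418 were pretreated with compounds in DMSO plus […] (300 uM stock) for 30 min at 37C. cAMP was measured by HTRF (cAMP-d2 plus anti-cAMP antibody-K) after 30 min at room temperature.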
# D2 ag = human D2 receptor agonism in beta-arrestin assay. P14416. DiscoveRx PathHunter D2 beta-arrestin, luminescence, 90 min; 100% = 57 uM dopamine signal. activation, % (test concentration not listed). 0.084% of 360,000 active. AID 624465; in the data active = activation above about 40%; inconclusive = about 15% to 40%; inactive = below about 15%; note: compound concentration not given in the record; the text of the record calls up to 30% inactive
# Target sequence (P14416 whole entry, looked up): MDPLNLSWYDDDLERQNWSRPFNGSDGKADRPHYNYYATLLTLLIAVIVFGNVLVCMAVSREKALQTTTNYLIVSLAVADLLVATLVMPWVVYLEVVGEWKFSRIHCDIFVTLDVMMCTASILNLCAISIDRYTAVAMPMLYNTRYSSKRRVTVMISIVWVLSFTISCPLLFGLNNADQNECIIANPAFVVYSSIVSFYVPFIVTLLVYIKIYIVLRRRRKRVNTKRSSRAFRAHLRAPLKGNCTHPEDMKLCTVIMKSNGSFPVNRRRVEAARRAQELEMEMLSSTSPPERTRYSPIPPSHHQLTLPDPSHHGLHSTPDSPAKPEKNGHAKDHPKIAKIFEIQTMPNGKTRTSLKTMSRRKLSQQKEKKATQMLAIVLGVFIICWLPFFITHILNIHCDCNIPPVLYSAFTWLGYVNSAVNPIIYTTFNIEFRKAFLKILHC
#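 Agonist mode: compounds alone added to overnight-plated D2 PathHunter cells for 90 min at 37 C, with 57 uM final dopamine (EC100) defining full response. Beta-arrestin recruitment detected by chemiluminescent reagent, read after 1 h at ambient temperature.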
# gsp antagonist = gsp mutant antagonism | gsp-mutant cells, cAMP HTRF, 30 min; control for the full effect not named in the record | Potency, µM (top dose mostly 76.9 µM), for inactives: at the top dose activity change, negative = inhibition, most hits filed as inhibitors | 0.4% of 340,000 active; active = falling curve of any shape with a large fitted effect; inconclusive = falling curve, mostly with a smaller effect; inactive = flat or rising curve; cell line not stated here;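 note: intracellular cAMP measured with PDE inhibitor Ro 20-1724 present during compound exposure; potency is the fitted concentration of half-maximal effect; % is set by controls: 0 for no effect and ±100 for the full control effect; nearly all actives have a fitted effect of over 65% in size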
#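 HTRF cAMP read-out (cAMP-d2 plus anti-cAMP antibody-K in lysis buffer, 30 min RT). Before lysis, cells are exposed to compounds with […] for 30 min at 37C in DPBS containing Ca/Mg, BSA and Tween 20.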
# * = called active by the depositor; ? = inconclusive; . = not tested or not shown; [ ] = another dose, or the depositor's remark.
nr	Compound	PINK1 modulator	Menin-MLL FL inh	Sfp PPTase inh	ClpP mod	gsp agonist	D2 ag	gsp antagonist
1	Cc1ccc(S(=O)(=O)CC2CSc3nc4ccccc4n32)cc1 (stereo not drawn)	-2.6%	3.1	-2%	0.7%	?	2.1	-24%
2	CC(=O)Nc1sc(-c2ccccc2)nc1-c1ccccc1	-1.3%	-2.8	14%	.	-1%[15.4 µM]	-13	.
3	CCCc1cc(NC(=O)COC(=O)c2nccnc2N)n(-c2ccccc2)n1	0.3%	.	.	4.4%	8%	0.4	3%
4	Cc1ccc(C)c(NC(=O)CCN2CCOCC2)c1	1.4%	1.6	8%	0.6%	11%	-4.2	9%
5	C=CCc1cccc2cc(C(=O)N3CCN(C(=O)c4ccco4)CC3)c(=O)oc12	.	3.0	1%	-11%	-5%	-3.3	-11%
6	Cc1ccccc1C(=O)NC(=S)NC1CC1	2.2%	-1.0	7%	.	-2%[15.4 µM]	1.2	6%
7	COc1ccc2cc(C(c3nnnn3CC3CCCO3)N3CCOCC3)c(=O)[nH]c2c1 (stereo not drawn)	4.6%[38.3 µM]	-2.7	7%	25µM*	5%	-2.0	-3%
8	NS(=O)(=O)c1ccc(CNC(=O)/C=C/c2ccc(S(=O)(=O)N3CCOCC3)cc2)cc1	1.7%	-4.7	-4%	0.5%	-5%	1.1	11%
9	O=C(Cc1n[nH]c(=O)[nH]c1=O)N/N=C/c1ccccc1	.	2.8	8%	-11%	6%	-1.9	1%
10	CCOC(=O)C1CCN(C(=O)c2ccc(C)c(S(=O)(=O)N3CCCC3)c2)CC1	-1.1%	.	9%	-1.9%	21%	-3.2	3%
11	COc1cc(/C=C/C(=O)O)cc(S(=O)(=O)Nc2cc(S(=O)(=O)N3CCCCC3)ccc2Cl)c1OC	0.7%	.	.	2.5%	7%	-2.2	.
12	CC1CN(S(=O)(=O)c2ccc(CN3C(=O)c4cccnc4C3=O)s2)c2ccccc2O1 (stereo not drawn)	-0.1%	.	-6%	-0.7%	16%	6.7	-22%
13	C=CCc1ccccc1OCC(O)CN1CCN(CCO)CC1 (stereo not drawn)	-1.8%	5.3	6%	-0.9%	-6%	1.8	7%
14	CSc1cccc(NC(=O)/C=C/c2ccco2)c1	-1.3%	?	56µM*	.	2%[15.4 µM]	-4.7	.
15	Cc1cccc(NC(=O)c2ccc(N3CCCCC3)c([N+](=O)[O-])c2)n1	5.4%	-3.7	-6%	1.1%	-22%	1.7	-34%
16	C/C(=N\NC(=O)c1ccoc1C)c1ccccc1O	-1.6%	-0.1	8%	.	7%	-1.4	-1%
17	CCOC(=O)Cn1nnc2c(sc3nc4c(c(-c5ccc(Cl)cc5)c32)CCC4)c1=O	-0.4%	0.0	?	-0.1%	-20%	-4.0	-16%
18	O=c1ccc(-c2ccccc2)nn1Cc1ccc(Cl)cc1	2.4%	.	.	-4.5%	-57%[inhibitor]	2.9	-8%
19	CCC(Sc1nc2c(cnn2-c2ccc(Cl)cc2)c(=O)[nH]1)C(=O)OC (stereo not drawn)	0.8%	2.7	-9%	-0.1%	24%	-4.7	-1%
20	Cc1ccc(S(=O)(=O)NCc2ccccc2)cc1C(=O)N1CCN(S(=O)(=O)c2ccccc2F)CC1	1.4%	.	.	-0.5%	-28%	-3.0	.
21	O=C(COC(=O)c1cnccn1)c1ccc(OC(=O)c2ccccc2)cc1	-1.3%	-0.6	-6%	-0.7%	?	-1.7	5%
22	O=[N+]([O-])c1ccc(N/N=C/c2c[nH]c3ccccc23)c(S(=O)(=O)Nc2ccc(Cl)cc2)c1	?	?	-3%	-2.4%	26%	-5.2	-5%
23	Cc1cccc(CCN2CCN=C2Nc2ccccc2)c1	0.1%	.	.	-4.6%	.	-4.5	4%
24	CCC(=O)Nc1ccc(NC(=O)c2cccc3c(Br)cccc23)cc1	1.6%	-2.1	7%	?	-2%	2.6	-5%
25	CCOC(=O)c1[nH]cnc1C(=O)NCc1ccccc1	0.2%	1.5	20%	0.8%	.	-2.1	3%
26	COC(=O)CC1(C(=O)OC)Oc2ccc(Br)cc2C(=O)N1c1ccc(Br)cc1Cl (stereo not drawn)	1.1%	-0.2	15%	-0.1%	-11%[15.4 µM]	-4.3	?
27	CCOC(=O)CN1CC23C=CC(O2)C(C(=O)NC2CCCC2)C3C1=O (stereo not drawn)	1.6%	2.0	?	0.5%	-3%	0.5	3%
28	CCOc1cc(-c2noc(N)c2C(=O)OC)cc(OCC)c1OCC	6.3%	-3.6	5%	0.1%	-26%	-2.5	4%
29	Cc1ccc(NC(=O)c2ncn(CC(=O)NCc3ccc4[nH]ccc4c3)n2)cc1C	1.6%	.	.	-1.9%	.	-3.1	-22%
30	CC(=O)Oc1ccc(C)cc1N1C(=O)c2ccc(C(=O)O)cc2C1=O	1.4%	0.4	-9%	-0.6%	0%	0.1	7%
31	CCNC(=O)COC(=O)/C=C/c1cccc([N+](=O)[O-])c1	0.5%	9.3	0%	.	0%[15.4 µM]	-2.6	.
32	CCOC(=O)C1(Cc2ccccc2)CCCN(Cc2ccncc2)C1 (stereo not drawn)	2.4%	7.7	6%	1.2%	?	-1.7	4%
33	Cn1c(/N=C/c2cc(Cl)ccc2O)nc2ccccc21	-2.8%[38.3 µM]	7.5	14%	-3.6%	15%	2.3	-2%
34	O=C1CC(C(=O)Nc2ccc(F)cc2)S/C(=N\N=C\c2ccco2)N1 (stereo not drawn)	3.6%	2.1	-15%	-1.0%	18%	-3.3	-2%
35	NC(Cc1ccc(Cl)cc1)c1csc(NC(=O)Nc2ccccc2-c2ccccc2)n1 (stereo not drawn)	-0.6%	.	.	-16%	.	?	.
36	Cc1ccccc1NC(=O)/C=C/c1ccc([N+](=O)[O-])s1	3.7%	?	5%	1.3%	0%	3.4	4%
37	CCCCn1c(O)c2n(c1=O)Cc1ccccc1N=C2c1ccc(C)cc1	6.2%	.	.	1.0%	.	3.8	.
38	O=C(COc1cccnc1[N+](=O)[O-])N1CCN(C(=O)c2ccco2)CC1	1.1%	-4.6	?	0.2%	-12%[15.4 µM]	-5.6	13%
39	Cc1cc(C)nc(SCc2ccc(C(=O)NN=C3C4CC5CC(C4)CC3C5)cc2)n1	-0.7%	3.1	4%	-0.4%	18%[15.4 µM]	-3.3	-2%
40	O=C(CCNS(=O)(=O)c1cccc2nsnc12)NCc1cccs1	-4.6%	0.7	19%	-6.8%	5%	1.6	12%
41	C=C(C)COc1ccc(-c2n[nH]c(C)c2-c2ccc(OC)cc2)c(O)c1	21%	-0.6	22%	-5.3%	-82%[inhibitor]	-3.4	-8%
42	CCOC(=O)C(=O)CC(=O)c1ccc2c(c1)OCCO2	-1.3%	3.0	-24%	-0.2%	-53%[inhibitor]	2.1	1%
43	CCCc1cc(=O)oc2c(C)c(OCC(=O)N3C[C@H]4C[C@@H](C3)c3cccc(=O)n3C4)ccc12	-0.3%	-8.1	14%	4.1%	.	-5.4	-9%
44	CCC(NC(=O)Nc1nnc(C(F)(F)F)s1)(C(F)(F)F)C(F)(F)F	?	2.5	39%[activator]	0.7%	0%	10	4.5µM*
45	Cc1cccc(C)c1NC(=O)COC(=O)c1cc(=O)c2ccccc2o1	1.7%	4.3	3%	0.1%	-10%	5.8	6%
46	O=C(COc1ccccc1)NC(=S)Nc1cccc([N+](=O)[O-])c1	4.1%	-2.5	-16%	1.0%	-9%	-2.1	-7%
47	CCC(C)NCCCCOc1cc(C)cc(C(C)C)c1 (stereo not drawn)	19%	1.3	-39%	-3.0%	-19%	-3.9	16%
48	COc1ccc(C(NC(=O)C2CCN(CCc3ccccc3)CC2)c2ccccn2)cc1 (stereo not drawn)	0.4%	.	.	2.5%	.	-2.1	.
49	COc1ccc(N(CCC#N)S(=O)(=O)c2ccc(Cl)cc2)cc1	-1.0%[38.3 µM]	0.5	-5%	-1.7%	0%	-0.4	5%
50	COc1ccccc1NS(=O)(=O)c1ccc(C)c(C(=O)Nc2cc(C)on2)c1	0.2%	.	.	0.8%	-17%	5.6	12%
51	CC(=O)NC(C)(c1ccccc1)c1nc(-c2ccc(F)c(Cl)c2)cs1 (stereo not drawn)	-0.4%	.	.	-1.3%	.	3.9	.

# Among those listed so far, these have an NH in an aromatic ring:
nr	Compound	PINK1 modulator	Menin-MLL FL inh	Sfp PPTase inh	ClpP mod	gsp agonist	D2 ag	gsp antagonist
7	COc1ccc2cc(C(c3nnnn3CC3CCCO3)N3CCOCC3)c(=O)[nH]c2c1 (stereo not drawn)	4.6%[38.3 µM]	-2.7	7%	25µM*	5%	-2.0	-3%
9	O=C(Cc1n[nH]c(=O)[nH]c1=O)N/N=C/c1ccccc1	.	2.8	8%	-11%	6%	-1.9	1%
19	CCC(Sc1nc2c(cnn2-c2ccc(Cl)cc2)c(=O)[nH]1)C(=O)OC (stereo not drawn)	0.8%	2.7	-9%	-0.1%	24%	-4.7	-1%
22	O=[N+]([O-])c1ccc(N/N=C/c2c[nH]c3ccccc23)c(S(=O)(=O)Nc2ccc(Cl)cc2)c1	?	?	-3%	-2.4%	26%	-5.2	-5%
25	CCOC(=O)c1[nH]cnc1C(=O)NCc1ccccc1	0.2%	1.5	20%	0.8%	.	-2.1	3%
29	Cc1ccc(NC(=O)c2ncn(CC(=O)NCc3ccc4[nH]ccc4c3)n2)cc1C	1.6%	.	.	-1.9%	.	-3.1	-22%
41	C=C(C)COc1ccc(-c2n[nH]c(C)c2-c2ccc(OC)cc2)c(O)c1	21%	-0.6	22%	-5.3%	-82%[inhibitor]	-3.4	-8%
